CtBP-E1A inh = inhibitors of CtBP/E1A interaction. AlphaScreen GST-E1A/His-CtBP binding, 1536-well; active compounds read low; control for the full effect not named in the record. activity change, % (no concentration beside the values). 340,000 compounds, 0.49% hits. AID 651724; in the data active means activity change below about -65%; inconclusive means about -30% to -65%; inactive means above about -30%; also: % is scaled to controls: 0 for no effect and ±100 for the full control effect
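Protein mix (5X: 125 nM each GST-E1A, His-CtBP) was incubated with pinned compound 2 h at 37 deg C in dark, in 50 mM Tris pH 8.0 buffer with 300 mM NaCl. Glutathione donor and nickel acceptor beads followed; AlphaScreen signal read after 1 h.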
TRPML1 inh = human mucolipin-1 channel inhibition; TRPML1-inducible cells, Ca2+ dye fluorescence, FDSS; active compounds read low; inhibition of EC80 agonist-evoked calcium signal; activity change, negative = inhibition, % (concentration not given with the values); 390,000 compounds, 0.02% hits; AID 624415; in the data active means activity change below about -50%; inconclusive means about -30% to -50%; inactive means above about -30%;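 also: stimulus is agonist 54-4 at its EC80 concentration; % is scaled to controls: 0 for no effect and ±100 for the full control effect; the text of the record puts the active cut at -80%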
Target sequence (Q9GZU1 whole entry, looked up): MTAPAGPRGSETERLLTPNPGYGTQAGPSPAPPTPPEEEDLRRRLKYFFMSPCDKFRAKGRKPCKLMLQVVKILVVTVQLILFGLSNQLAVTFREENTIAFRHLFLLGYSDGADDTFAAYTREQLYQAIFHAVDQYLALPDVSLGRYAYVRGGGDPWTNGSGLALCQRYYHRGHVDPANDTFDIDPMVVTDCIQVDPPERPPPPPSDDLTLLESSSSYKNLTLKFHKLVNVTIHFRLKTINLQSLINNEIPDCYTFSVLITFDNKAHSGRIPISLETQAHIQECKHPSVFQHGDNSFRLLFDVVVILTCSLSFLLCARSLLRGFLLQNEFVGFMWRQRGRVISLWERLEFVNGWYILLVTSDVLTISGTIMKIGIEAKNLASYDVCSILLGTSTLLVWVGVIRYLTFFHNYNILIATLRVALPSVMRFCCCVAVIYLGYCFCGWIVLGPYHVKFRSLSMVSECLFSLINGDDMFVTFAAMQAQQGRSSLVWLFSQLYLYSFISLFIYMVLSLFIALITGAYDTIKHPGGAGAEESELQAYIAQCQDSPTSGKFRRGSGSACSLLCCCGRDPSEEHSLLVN
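TRPML1-DL cells, Tet-induced overnight (~16 h, 37 °C) at 1,500 cells/well, were loaded with Ca8 no-wash dye plus quencher for 45-90 min at room temperature. Compounds were pinned during FDSS kinetic reading; agonist 54-4 at EC80 (4 uM final) then added.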
TRPV1 PAM = potentiators of human vanilloid receptor 1 (TRPV1). Q8NER1. TRPV1-expressing cells, Fluo-8 calcium influx, capsaicin EC20 potentiation; host cell line not named in the record; control for the full effect not named in the record. potentiation, % at 8.33 µM. 320,000 compounds, 0.02% hits. AID 540277; active means potentiation above 80%; inconclusive means 30% to 80%; inactive means below 30%; also: 0% is about no effect
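TRPV1-expressing cells were cultured overnight at 35.5C and loaded with Fluo-8 calcium dye for 40 to 90 min at room temperature. After a 10 s baseline, compound was added and calcium influx was read kinetically for 3 min (ex 480/em 520 nm).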
TRPML1 ag = activates the human TRPML1 channel; Q9GZU1; TRPML1-expressing cells, Ca2+ dye fluorescence, FDSS; host cell line not named in the record; reference of the full effect not given here; activation, % (concentration not given with the values); 410,000 compounds, 0.12% hits; AID 624414; in the data active = activation above about 50%; inconclusive = about 30% to 50%; inactive = below about 30%; also: 0% is about no effect; the text of the record puts the active cut at 80%
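Calcium fluorescence on an FDSS kinetic reader gave the read-out. Tet-induced TRPML1-DL cells were plated overnight, dye-loaded (Ca8 with quencher, 45-90 min, room temperature, dark), then read 110 s after compound addition, and again 110 s after 4uM final 54-4 (EC80).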
Six1-Eya2 blk = Six1/Eya2 interaction inhibition. AlphaScreen GST-Six1/His-Eya2 binding, biochemical; active compounds read low; control for the full effect not named in the record. activity change, % (concentration not given with the values). 360,000 compounds, 0.56% hits; in the data active = activity change below about -65%; inconclusive = about -30% to -65%; inactive = above about -30%; also: % is scaled to controls: 0 for no effect and ±100 for the full control effect
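AlphaScreen with GST-Six1 and His-Eya2 (5X mix: 250 nM and 500 nM), glutathione donor and nickel acceptor beads; buffer 50 mM Tris pH 8.0, 300 mM NaCl, 1 mM TCEP; 1 h at 37 C in the dark.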
D2 potentiator = potentiates the human D2 dopamine receptor allosterically. DiscoveRx D2 beta-arrestin cells, luminescence, 90 min; 100% = 57 uM dopamine signal. potentiation, % (test concentration not listed). 360,000 compounds, 0.23% hits; active = potentiation of 50% or more; inconclusive = 30% to 50%; inactive = 30% or less;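 also: compound concentration not given in the record; tested on top of an EC20 dose of dopamine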
Target sequence (P14416 whole entry, looked up): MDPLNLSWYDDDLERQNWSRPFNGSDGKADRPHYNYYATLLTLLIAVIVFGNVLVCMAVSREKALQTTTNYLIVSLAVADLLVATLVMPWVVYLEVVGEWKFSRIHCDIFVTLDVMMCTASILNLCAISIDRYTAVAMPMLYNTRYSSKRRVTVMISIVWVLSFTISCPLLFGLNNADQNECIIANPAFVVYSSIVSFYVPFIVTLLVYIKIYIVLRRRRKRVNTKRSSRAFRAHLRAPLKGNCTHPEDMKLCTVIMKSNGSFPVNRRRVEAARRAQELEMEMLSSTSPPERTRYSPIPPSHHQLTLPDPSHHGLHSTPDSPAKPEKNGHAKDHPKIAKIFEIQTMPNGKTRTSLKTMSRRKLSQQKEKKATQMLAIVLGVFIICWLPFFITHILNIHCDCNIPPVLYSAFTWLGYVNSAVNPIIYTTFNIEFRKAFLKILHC
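PathHunter beta-arrestin assay in DiscoveRx D2 cells. Compounds were added with an EC20 of dopamine (50 nM final) for 90 min at 37 deg C. Luminescence was read 1 h after detection reagent, with 57 uM dopamine as the EC100 control.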
* hit, by the source's call; ? = inconclusive; · = not tested or not shown; & = joins results of further samples. Rows are unselected; any-hit rate near 0.95%.

Values run as follows: CtBP-E1A inh, TRPML1 inh, TRPV1 PAM, TRPML1 ag, Six1-Eya2 blk, D2 potentiator
- CCc1nnc(NC(=O)CN2C(=O)c3ccccc3S2(=O)=O)s1
    -5.5, 0.5, 1.1, -0.2, -2.8, 13.5
- O=C(c1cc(COc2ccccc2)on1)N1CCCC(CN2CCOCC2)C1 (stereo unspecified)
    7.9, -27.5, 25.8, 0.6, 1.7, -2.8
- COc1ccc2c(C)c(C)c(=O)oc2c1OC
    13.9, 4.1, -4.8, -0.2, 41.2, -5.0
- CO/N=C(\N)c1ccc([N+](=O)[O-])cc1
    ·, 26.7, -4.4, 2.6, 1.0, -1.6
- O=C(COC(=O)/C=C/c1cccc(Br)c1)Nc1ccc(Cl)cn1
    -3.6, 3.2, ·, -0.7, -3.5, -6.3
- CC(=O)Nc1ccc(NC(=O)COC(=O)C2CCC(C(C)(C)C)CC2)cc1 (stereo unspecified)
    -0.6, 35.7, ·, -0.3, 1.3, -3.5
- CCCCc1nnc(NC(=O)CN2C(=O)c3ccccc3C2=O)s1
    7.7, 34.9, -17.4, 0.4, 2.6, 0.0
- O=C(CCCOc1ccc(Cl)cc1Cl)NCCCO
    10.6, -3.3, -13.8, 1.0, 6.7, 4.9
- CCN(CC)C(=O)C12CC3CC(CC(Cl)(C3)C1)C2
    -0.4, -2.8, -18.2, 0.1, -2.6, -28.2
- CC(=O)N1Cc2cc(C(=O)NCC(F)(F)F)nc(-c3cccc(-c4cccnc4)c3)c2[C@@H]1CCO
    -9.3, ·, ·, -0.5, -14.2, ·
- CC(=O)c1cccc(NC(=O)CN2CCc3cc4c(cc3C2C)OCCCO4)c1 (stereo unspecified)
    -5.9, 10.7, -6.1, -0.6, -5.5, -20.8
- CCCCC[C@H]1CCCCC[C@@H](O)C[C@@H](O)[C@@H](O)/C=C/C(=O)O1
    1.6, ·, ·, -0.3, 8.5, ·
- CCOC(=O)c1ccccc1NC(=O)CN(c1ccccc1OC)S(C)(=O)=O
    2.0, 6.0, -8.0, 1.5, 6.6, 12.3
- Cc1cc(C(=O)NCC(C)C)c2ccccc2n1
    7.5, -15.2, 2.3, 0.0, 1.1, -14.4
- O=C(N/N=C/c1coc2ccc(Cl)cc2c1=O)c1ccncc1
    0.1, -1.7, -1.1, -0.2, -3.9, 5.4

Later entries.
Values run as follows: CtBP-E1A inh, TRPML1 inh, TRPV1 PAM, TRPML1 ag, Six1-Eya2 blk, D2 potentiator
- CCOc1ccc(-c2cc(C(=O)NCCCN3CCN(CC)CC3)c3ccccc3n2)cc1
    7.6, -6.2, -0.7, 0.5, -1.2, -7.9
- Cc1ccc(C(=O)OCC(=O)c2c(N)n(C)c(=O)n(C)c2=O)cc1S(=O)(=O)N1CCCCC1
    -3.3, -19.9, -2.2, 0.0, -3.8, -1.5
- COc1ccccc1CNC(=O)c1cc2sccc2n1C
    -6.6, -16.6, 11.2, 0.0, -13.1, 2.4
- COc1cccc2c(=O)cc(C)n(CC(=O)Nc3ccccc3C)c12
    -8.8, 5.0, -8.6, 1.5, -4.5, -5.1
- CN(C)c1nnnn1-c1ccc(OC(F)(F)F)cc1
    -0.5, 4.5, -1.8, 0.1, 5.8, -2.0
- CCOc1ccc(NC(=O)CCC(=O)NNC(=O)Nc2ccc(Cl)cc2)cc1
    ·, -0.7, 6.1, 5.5, -5.2, -1.3
- C/C=C/c1ccc(OCC(=O)OCC(=O)Nc2c(C)nn(-c3ccccc3)c2C)c(OC)c1
    4.1, -23.0, -29.9, -0.3, 0.7, -6.2
- Cc1cccc(NC(=O)Cn2ccn(-c3ccc4c(c3)OCCO4)c(=O)c2=O)c1
    0.3, 3.0, -7.8, 0.2, 5.5, -3.1
- COc1ccc(C(=O)NCCN2CCCC2)cc1
    2.2, -8.7, ?, -0.2, -5.9, -25.3
- CC(=O)c1ccc(NC(=O)c2onc(C)c2Cl)cc1
    4.8, ·, -25.5, ·, 6.8, -7.6
- CC1CN(c2nc3c(c(=O)n(C)c(=O)n3C)n2Cc2c(F)cccc2Cl)CC(C)O1 (stereo unspecified)
    1.4, -11.6, -21.5, 0.7, -1.4, 4.7
- Cc1ccc2cc(C)c3nnc(SCC(=O)NCc4ccco4)n3c2c1
    ?, 13.8, 7.9, 3.7, ?, -3.5
- COC(=O)CCC(=O)OC1(C)C(=O)C2=CN(Cc3ccc4c(c3)OCO4)C(c3ccc(OC)cc3)=CC2=C(Br)C1=O (stereo unspecified)
    ?, -20.1, ·, -0.8, -17.4, 10.3
- COc1ccc(C(O)P(=O)(OC2CCCCC2)c2ccc(N(C)C)cc2)cc1OC (stereo unspecified)
    2.1, 15.5, -7.3, 0.6, 1.6, -3.4
- COc1ccc([C@@H]2C(C#N)=C(N)S[C@@H](c3ccccc3)[C@@H]2[N+](=O)[O-])cc1
    -7.3, 52.5, 4.8, 4.1, -1.5, -27.6

(further entries)
Values run as follows: CtBP-E1A inh, TRPML1 inh, TRPV1 PAM, TRPML1 ag, Six1-Eya2 blk, D2 potentiator
- CC(C(=O)Nc1ncc2c(n1)CC(C)(C)CC2=O)N1C(=O)c2ccccc2C1=O (stereo unspecified)
    1.1, 25.8, 19.2, -1.7, -0.1, -9.0
- Cc1ccc(CSc2ccc(S(=O)(=O)N3CCOCC3)cn2)cc1
    11.0, -9.7, -11.5, 1.3, 10.4, 1.6
- CSCCC(NC(=O)c1cccc(C)c1)C(=O)NNC(=O)c1cccs1 (stereo unspecified)
    ·, -3.2, ·, 0.1, 3.4, -9.6
- CCn1c(SC(C)C(=O)N2CCOCC2)nc2sc(C)c(C)c2c1=O (stereo unspecified)
    -8.4, 2.3, -30.1, 0.1, 5.6, -1.5
- CCOc1ccc(/C=N/NC(=O)c2cc(-c3ccccc3)nc3ccccc23)cc1O
    ·, -8.8, 23.3, 0.0, -25.1, -9.5
- Cn1c(=O)c2c(=O)cc(N)[nH]c2n(C)c1=O
    ·, 10.2, 11.8, -0.1, -0.6, -19.0
- COc1ccc(CCNC(=O)CSc2cn(Cc3cccc(C)c3)c3ccccc23)cc1OC
    -14.7, 62.6, ?, 1.4, ?, -3.7
- O=C(Nc1ccc(S(=O)(=O)Nc2ncccn2)cc1)c1cccc(Br)c1
    5.1, 23.2, 6.0, -0.4, 3.2, 6.5
- COC(=O)c1c(C)c2c(C)cc3ccccn3c-2c1C(=O)OC
    ?, -2.4, -0.3, -1.4, ?, -26.5
- CN(Cc1ccccc1)C(=O)c1nc2ccccn2c1CNCCn1cccn1
    1.9, 18.5, 9.7, 0.1, 3.5, -11.3
- COc1ccc(-c2nn3c(-c4ccccn4)nnc3s2)cc1OC
    -89.5*, 9.7, -4.5, -0.1, -80.6*, -2.4
- O=C(C1CCCN(Cc2nc(-c3ccc(Cl)cc3)no2)C1)N1CCOCC1 (stereo unspecified)
    1.2, 1.2, -24.5, -0.6, -5.0, -8.6
- C=CCOc1ccc2oc(=O)cc(C)c2c1
    2.2, 12.4, 1.2, -0.3, -0.1, -5.1
- O=C(CC1CCCC1)Nc1cccc(Br)c1
    15.6, -2.2, -11.5, 1.0, 7.7, -8.9
- CCOC(=O)c1cccc(NC(=O)CSc2nnc(C3CCCCC3)n2C)c1
    -0.8, -1.8, 10.6, 0.7, -0.7, 4.9

Not a retest: entries from further up.
Values run as follows: CtBP-E1A inh, TRPML1 inh, TRPV1 PAM, TRPML1 ag, Six1-Eya2 blk, D2 potentiator
- C=CCOc1ccc2oc(=O)cc(C)c2c1
    2.2, 12.4, 1.2, -0.3, -0.1, -5.1
- O=C(CC1CCCC1)Nc1cccc(Br)c1
    15.6, -2.2, -11.5, 1.0, 7.7, -8.9
- CCOC(=O)c1cccc(NC(=O)CSc2nnc(C3CCCCC3)n2C)c1
    -0.8, -1.8, 10.6, 0.7, -0.7, 4.9

Further records follow:
Values run as follows: CtBP-E1A inh, TRPML1 inh, TRPV1 PAM, TRPML1 ag, Six1-Eya2 blk, D2 potentiator
- CS(=O)(=O)c1ccc(S(=O)CC(=O)Oc2ccc(Cl)cc2)c([N+](=O)[O-])c1 (stereo unspecified)
    -8.9, -3.6, 7.7, 1.1, -6.7, -7.2
- O=C(CCCCCNC(=O)N1CCn2c1nc1ccccc12)N[C@H](C(=O)O)c1ccccc1
    -18.8, ·, 1.6, ·, -12.6, -38.1
- CCOC(=O)c1oc2ccc(/C=N/O)c(Cl)c2c1C
    -16.4, -0.5, 4.6, 1.4, -7.9, -4.8
- c1ccc(OCCOCCN2CCN(C(c3ccccc3)c3ccccc3)CC2)cc1
    -14.1, -5.5, -23.0, 1.4, 1.7, -27.1
- Cc1cccn2c(=O)c(C=O)c(N3CCCCC3)nc12
    -1.9, 5.7, -20.7, 2.1, -1.3, -2.0
- CCCc1nn(C)c(C(=O)Nc2ccc(CC)cc2)c1Cl
    -3.9, -3.0, 14.0, 2.4, 15.8, -21.1
- CN1C=CC=C/C1=C1/N=C(c2ccccc2)OC1=O
    -17.7, 21.7, -3.6, 2.9, 7.7, 11.2
- Cc1cccc(CCNC(=O)C2CCC(=O)N(Cc3ccc(Cl)cc3)C2)n1 (stereo unspecified)
    9.2, -9.8, 5.2, 0.0, -0.3, 10.8
- O=C(N/N=C\c1ccc2c(c1)OCO2)c1ccc(Cn2cc(Br)c([N+](=O)[O-])n2)o1
    8.0, 3.8, -18.9, -0.7, 5.8, 1.4
- O=C(COC(=O)c1ccccc1NC(=O)c1ccco1)NCC1CCCCC1
    2.2, 4.3, -16.4, 2.6, -2.0, 5.2
- COc1ccc(CN(C(=O)c2cc(=O)c3ccccc3o2)C2CCS(=O)(=O)C2)cc1OC (stereo unspecified)
    5.7, -1.2&-11.4, -4.1, -0.7&-1.0, -0.1, 3.7
- CNC(=O)c1ccc(OC2CSC2)cc1
    4.8, -3.1, -7.7, -0.5, -3.5, -3.0
- Oc1ccc(CCc2n[nH]c(=S)n2-c2ccc(F)cc2)cc1
    -1.7, 4.9, -3.9, 5.0, 0.0, -10.0
- COc1cc(/C=C/C(=O)OCC(=O)N2CCN(S(=O)(=O)c3ccc(C)cc3C)CC2)ccc1OC(F)F
    -86.5*, -18.0, ·, 1.3, -21.6, -3.5
- CCOC(=O)CSc1nn(C)c(=S)s1
    11.0, -10.0, -22.0, -0.3, 5.3, -1.7
- O=CN1CCN(CC(O)Cn2c3ccccc3c3ccccc32)CC1 (stereo unspecified)
    8.3, 34.7, 1.9, 0.1, -0.5, -1.0
- O=C(c1ccc(NC2=NC3CS(=O)(=O)CC3S2)cc1)N1CCc2ccccc2C1 (stereo unspecified)
    -1.3, 11.9, 1.0, 0.0, 6.5, -10.4
- Cc1ccccc1-n1c(N)cc(=O)[nH]c1=S
    0.8, 1.8, 5.7, 0.5, 6.4, -5.5

An excerpt from above, reduced to TRPML1 ag:
| compound | TRPML1 ag |
| --- | --- |
| c1ccc(OCCOCCN2CCN(C(c3ccccc3)c3ccccc3)CC2)cc1 | 1.4 |
| Cc1cccn2c(=O)c(C=O)c(N3CCCCC3)nc12 | 2.1 |
| CCCc1nn(C)c(C(=O)Nc2ccc(CC)cc2)c1Cl | 2.4 |
| CN1C=CC=C/C1=C1/N=C(c2ccccc2)OC1=O | 2.9 |
| Cc1cccc(CCNC(=O)C2CCC(=O)N(Cc3ccc(Cl)cc3)C2)n1 (stereo unspecified) | 0.0 |

Screening results (PubChem BioAssay)
